HNF4A DNA FP: change in binding of human HNF4 alpha to DNA. HNF4a-FITC DNA binding, fluorescence polarization, 1 h. activity change, % at 10 µM. 360,000 tested, 0.3% active; in the data active = activity change above about 30%, passing the limit was not always enough;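 note: controls were the assay level and a saturating level of protein; the project sought stronger binding though the title names inhibitors; some compounds called inactive have numbers as strong as hits; positive values seem to mean higher polarization but the record does not say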
Target sequence (P41235 whole entry, looked up): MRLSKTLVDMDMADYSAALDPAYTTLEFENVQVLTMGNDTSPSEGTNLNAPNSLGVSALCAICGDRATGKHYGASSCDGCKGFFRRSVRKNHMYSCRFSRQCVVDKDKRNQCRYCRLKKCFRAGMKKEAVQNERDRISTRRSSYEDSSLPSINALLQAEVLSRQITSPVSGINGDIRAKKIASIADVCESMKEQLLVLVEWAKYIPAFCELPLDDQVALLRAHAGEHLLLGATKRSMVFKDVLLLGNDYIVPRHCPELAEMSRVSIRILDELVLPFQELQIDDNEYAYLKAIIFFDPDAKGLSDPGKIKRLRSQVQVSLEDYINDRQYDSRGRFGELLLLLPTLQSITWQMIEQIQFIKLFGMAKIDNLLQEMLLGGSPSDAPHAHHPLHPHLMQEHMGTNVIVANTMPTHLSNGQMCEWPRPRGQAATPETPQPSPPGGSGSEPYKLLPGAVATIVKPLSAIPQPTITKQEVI
Vif A3G: HIV-1 Vif–A3G interaction blockers – biochemical, TR-FRET, GST-Vif 1-94, biotin-A3G peptide, dose response retest, primary screen (AID 1117319); inhibition, %; hits with a dose series show IC50 in µM; TR-FRET GST-Vif / biotin-A3G peptide binding; higher % means a stronger effect; test concentration not given here; strong numbers were not always called active; 260,000 tested, 0.57% active;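 active = above the screen mean plus three standard deviations and confirmed in dose response; inconclusive = results disagree or hit not tested in dose response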;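 note: Vif residues 1-94 fused to GST binding biotinylated APOBEC3G peptide 110-148; 0% = full assay without inhibitor and 100% = GST in place of GST-Vif; retest series ran down from 100 µM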
Beta2AR agonist: activates human beta-2 adrenergic receptor causing internalization. P07550. Am2.2-beta2AR cells, FAP receptor internalization, flow cytometry; reference of the scale not given here. response, % (concentration not given with the values). 340,000 tested, 0.43% active. AID 504454;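 active = response above a set limit, near 3 SD of response in nonfluorescent compounds, cut at about 42% in these data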;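 note: stock transfer was 100 nL into about 11 µL; a reference agonist was the positive control; negative values mostly stem from fluorescent compounds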
Target sequence (P07550 whole entry, looked up): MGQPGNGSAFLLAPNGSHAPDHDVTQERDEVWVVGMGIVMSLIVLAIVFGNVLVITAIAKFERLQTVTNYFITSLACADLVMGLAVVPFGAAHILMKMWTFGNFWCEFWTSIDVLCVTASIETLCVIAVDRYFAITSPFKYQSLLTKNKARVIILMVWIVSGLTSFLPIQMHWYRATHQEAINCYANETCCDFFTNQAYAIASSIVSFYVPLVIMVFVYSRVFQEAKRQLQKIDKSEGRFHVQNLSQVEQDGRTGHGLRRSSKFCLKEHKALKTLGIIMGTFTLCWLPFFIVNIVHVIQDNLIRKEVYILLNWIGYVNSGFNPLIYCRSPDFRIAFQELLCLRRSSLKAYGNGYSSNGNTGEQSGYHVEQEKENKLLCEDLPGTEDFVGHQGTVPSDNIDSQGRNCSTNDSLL
Ecoli growth: blocks Escherichia coli growth. 330,000 tested, 0.21% active. OD600, 23 h; hits give low values. OD600 absorbance (concentration not given with the values). AID 1053175;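 active = OD600 absorbance below the run mean of sample wells minus 3.6 SD, in any replicate, cut at about 0.56 in these data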;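 note: stock transfer was 300 nL into about 60 µL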
LANA-H2A inh: blocks KSHV LANA binding to histone H2A/H2B | Q9QR71 | cell-free LANA-H2A/H2B peptide, fluorescence polarization | inhibition, % (test concentration not listed) | 320,000 tested, 0.6% active | AID 2629; in the data active = inhibition mostly above about 10%, no sharp cut-off; inactive = mostly below about 6.7%;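 note: stock transfer was 7.5 nL into about 10 µL; 0% = median of vehicle wells and 100% = median of positive control wells; one replicate is shown; the record names a cut of 25% in any replicate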
UCH37 inh: human UCH37 deubiquitinating enzyme inhibition | AID 588478 | purified proteasome/UCH37, Ub-AMC cleavage fluorescence | Q9Y5K5 | inhibition, % (no concentration beside the values) | 330,000 tested, 0.33% active;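 active = mean of two replicates above 20%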;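 note: 0% = compound-free wells with enzyme and 100% = wells lacking proteasome; stock transfer was 100 nL into about 20 µL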
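Signal – fluorescence, ex 355 nm, em 460 nm · System – Proteasome-bound UCH37 · Input – 0.15 nM proteasome as dispensed · Timing – 30 min preincubation with enzyme, 25 min cleavage at room temperature · Read-out basis – percent inhibition of cleavage signal versus uninhibited and no-proteasome wells · Medium – Tris-HCl pH 7.4 with ATP-MgCl2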
Bfl-1 A1 inh: inhibitors of the anti-apoptotic protein A1, read as caspase activation; MEF A1-2A-BIM cells, Caspase-Glo 3/7 luminescence, 3 h; percent of clofoctol response, vehicle zero; 330,000 tested, 0.066% active; caspase activation, % (no concentration beside the values);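 active = over half of replicate activation scores above 10%, or exactly half above 10 with the replicate mean above 10; inconclusive = replicate mean below 10 yet half the replicates above 10; inactive = over half of replicates below 10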;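 note: wells of about 30 µL received 50 nL stock; many hits fall short of the cut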
Starred values were filed as active, the others as inactive; i = inactive; ? = inconclusive; / = no result given; & = joins results of further samples.

SMILES	HNF4A DNA FP	Vif A3G	Beta2AR agonist	Ecoli growth	LANA-H2A inh	UCH37 inh	Bfl-1 A1 inh
CCCCN=C(NNc1ccc(Br)cc1)C(=O)OCC	-1.9	/	3	0.67	9.8	4.3	-0.3
Cc1c(C(=O)N2C[C@@H](C)O[C@@H](C)C2)oc2c(F)cccc12	2.5	/	-5	0.71	-2.2	1.9	-0.4
Cc1cccc(NC(=O)CCS(=O)(=O)c2ccc3c(c2)oc(=O)n3C)c1	-4.5	/	-9	0.66	-1.9	-0.2	1.1
O=C(Cc1cccs1)NCc1cccc(F)c1	-1.7	0%	-5	0.65	-5.8	0.0	0.4
CN1CCCN(CC(O)COCc2cccs2)CC1 (stereo unspecified)	0.7	22%	-2	0.73	5.1	-3.9	1.3
Cn1c(=O)c2c(nc(NCC3CCCO3)n2Cc2cccc(Br)c2)n(C)c1=O (stereo unspecified)	0.0	0%	1	0.69	-0.4	3.5	0.1
COc1cccc(C2CC(c3ccccc3)Nc3nc(N)nn32)c1 (stereo unspecified)	-0.5	-4%	21	0.68	-2.1	0.9	1.6
COCCCNC(=O)CN(c1cccc(Cl)c1C)S(C)(=O)=O	0.8	?	-18	0.7	-1.2	2.1	-0.2
O=C(NCC1CCCO1)c1ccc(COc2ccccc2Br)cc1 (stereo unspecified)	-0.7	/	3	0.62	-7.4	4.3	0.0
COc1ccccc1N(CC(=O)Nc1ccccc1)S(=O)(=O)c1cccs1	-2.7	-1%	-2	0.6	-2.9	-0.8	0.1
CCCCn1c(=O)c(CCC(=O)OCC(=O)Nc2cc(Cl)ccc2OC)nc2ccccc21	3.2	-1%	-2	0.71	5.6	-2.4	-0.3
c1csc(CNCc2ccncc2)c1	-3.6	3%	-3	0.72	0.4	-2.2	-0.4
O=C(NCC1(N2CCOCC2)CCCCC1)c1ccc(Cl)c(S(=O)(=O)NCc2ccco2)c1	3.4	16%	2	0.65	0.2	1.6	-0.7
COc1ccc(C(=O)NCC(=O)N2CCN(C(=O)c3ccco3)CC2)cc1OC	-0.1	2%	-3	0.68	/	2.6	/
CC(C)NC(=O)CCCOc1ccc(Cl)cc1Cl	-1.4	0%	0	0.65	-0.1	3.8	0.1
Cc1cc2occ(CC(=O)Nc3nccs3)c2cc1C(C)C	-4.0	2%	3	0.72	-3.4	-1.1	-0.4
COc1ccc(C2c3c(-c4ccccc4O)n[nH]c3C(=O)N2CCc2ccc(OC)c(OC)c2)cc1 (stereo unspecified)	0.0	20%	3	0.7	-2.3	5.1	-0.1
CC(OC(=O)/C=C/c1cccs1)C(=O)NC1CCCCC1C (stereo unspecified)	-2.4	3%	-6	0.7	2.4	4.2	0.2
CCNC(=O)CSc1nnc(-c2ccccc2)n1-c1ccc(OCC)cc1	-1.4	24%	3	0.67	-1.8	5.7	0.0
CCN(CC)S(=O)(=O)c1cc(NC(=O)c2ccc(-n3cncn3)c([N+](=O)[O-])c2)ccc1C	4.9	-3%	10	0.68	1.6	3.9	0.3
NC(=O)c1cc(S(=O)(=O)N2CCOCC2)ccc1Sc1ccccc1N	3.0	8%	-3	0.7	/	4.6	/
C=C(C)COc1ccc(-c2n[nH]c(C)c2-c2ccccc2OC)c(O)c1	3.3	-4%&6%	-4	0.75	-0.8	1.3	-0.3
COc1ccc2c(CC(=O)Nc3ccc(N4CCOCC4)cc3)coc2c1	0.1	-7%	-2	0.69	1.5	0.5	0.3
Cc1nc(NC(=O)CSc2nnc(C3CC3)n2C)sc1C	1.8	/	-9	0.69	3.7	5.4	1.2
NS(=O)(=O)c1cccc(NC(=O)c2cccc3c(Br)cccc23)c1	0.8	/	-4	0.69	-2.3	2.0	0.4
COC(=O)c1ccccc1NC(=O)CN1CCC(NC(=O)c2ccccc2C)CC1	3.0	3%	1	0.63	-1.2	0.6	0.2
CCCCNC(=O)c1cc2nc3c(c(C(F)(F)F)n2n1)CCc1ccccc1-3	-2.0	?	-4	0.73	-5.8	-141	0.6
COCCN(CC(=O)Nc1cccc(C)c1C)C(=O)c1ccc(-n2cccn2)cc1	1.9	/	-11	0.71	-0.6	1.2	0.6
CC(CN1CCCC1)OC(=O)c1ccc(Cl)cc1Cl (stereo unspecified)	-2.4	/	7	0.65	-1.5	5.7	0.5
CN(CC(=O)Nc1cccc2c1CCCC2)S(=O)(=O)c1ccccc1	-2.2	3%	3	0.7	10.0	3.0	0.4
CC1(C(=O)N2CCN(Cc3ccccc3Cl)CC2)CC1(Cl)Cl (stereo unspecified)	-1.8	-3%	-8	0.68	-5.5	1.2	-0.6
S=C(NNc1nc(Nc2ccccc2)nc(N2CCCCC2)n1)NC1CCCCC1	-1.5	0%	-3	0.72	2.4	3.3	-0.5
CN(C)C(CNC(=O)Cc1cccc(C(F)(F)F)c1)c1ccccc1 (stereo unspecified)	-1.9	/	1	0.71	-4.4	-0.1	1.0
Cc1ccc(Cl)cc1NC(=S)N(CCCN1CCN(C)CC1)Cc1cccs1	-0.8	22%	8	0.71	-3.1	9.0	0.1
O=C(Cn1nc(C(=O)O)c2ccccc2c1=O)Nc1nc(-c2ccccc2)cs1	-0.7	-4%	-4	0.72	0.3	5.7	-3.9
CN1CCN(C(=O)C2=C[C@H](c3csc4ccccc34)C[C@H](OCc3ccc(CO)cc3)O2)CC1	4.5	4%	2	/	3.4	1.3	-0.9
CCC(CC)c1nnc(NC(=O)Cc2cccs2)s1	11	24%	-4	0.73	-0.3	-0.1	1.1
Cn1cccc1Cc1nnc(SCC(=O)NC2CCCC2)n1CCc1ccccc1	4.1	0%	0	0.75	11	6.3	0.1
Cc1cc(C)c(NC(=S)N(C)C)cc1C	2.4	-5%	0	0.66	1.5	1.1	2.0
COc1ccc(N2CC(C)Cn3c2nc2c3c(=O)n(CCc3ccccc3)c(=O)n2C)cc1 (stereo unspecified)	-1.7	7%	0	/	/	/	/
CC(C)NC(=O)CSc1nc2ccccc2n1CC(=O)N1CCc2ccccc21	-3.6	-3%	1	0.7	-3.4	5.6	0.0
COc1ccc(N/C=C/C(=O)c2ccccc2)cc1	4.3	/	4	0.72	-2.6	0.9	-7.1
CCOC(=O)c1c(NC(=O)CSc2nnc(-c3ccncc3)n2Cc2ccco2)sc(C)c1C	-3.6	-4%	1	0.7	5.0	2.6	-0.1
CNC(=O)c1ccsc1NC(=O)CS(=O)(=O)c1ccccc1	0.4	1%	-3	0.67	-3.7	0.0	-0.2
COc1ccc(S(=O)(=O)N2CCCC(C(=O)NCc3ccc(F)cc3)C2)cc1 (stereo unspecified)	1.3	/	-1	0.65	-5.8	1.7	-0.5
Cc1ccccc1NC(=O)Cc1nc(COC(=O)c2ccc(C(F)(F)F)cc2)cs1	-3.8	-6%	-9	0.68	2.4	3.3	0.2
Cc1ccsc1/C=C(/C#N)C(=O)NCc1ccccc1	3.5	5%	-4	0.66	/	0.5	-0.4
COc1cc(OC)c(NC(=O)c2cncn2-c2ccc(F)cc2)cc1Cl	1.5	/	-5	0.74	7.7	3.9	-0.3
Cc1csc2ncc(C(=O)N(Cc3ccccc3)c3ccccn3)c(=O)n12	0.8	6%	2	0.74	6.4	3.0	0.4
CCOC(=O)C(NC(C)=O)(Nc1ccc(S(=O)(=O)Nc2ncccn2)cc1)C(F)(F)F (stereo unspecified)	-3.6	/	-2	0.67	1.8	0.3	-0.6
(continued)
SMILES	HNF4A DNA FP	Vif A3G	Beta2AR agonist	Ecoli growth	LANA-H2A inh	UCH37 inh	Bfl-1 A1 inh
COC(=O)N1[C@H](Cc2ccccc2)C=C[C@]1(C)C(=O)O	1.5	-8%	4	0.69	-3.0	1.7	0.3
COc1ccc2oc(C(=O)OCC(=O)N3C(C)CCCC3C)c(C)c2c1 (stereo unspecified)	1.0	3%	4	0.72	-30	-60	0.7
COc1ccc(NC(=O)CN(C)C(=O)c2ccc(COc3ccccc3)cc2)cc1	-3.3	-3%	-4	0.64	3.5	1.6	0.7
CC1CCN(C(=O)c2[nH]cnc2C(=O)NCc2ccccc2)CC1	3.7	/	3	0.69	2.1	0.1	-0.2
CCOC(=O)C1=C(CC)Nc2ccccc2N=C1NC(=O)c1ccc(OC)c(S(=O)(=O)N2CCOCC2)c1	-1.3	/	-2	0.68	/	0.1	/
Cc1c(C(=O)NCCc2ccc(S(N)(=O)=O)cc2)cccc1[N+](=O)[O-]	5.1	/	3	0.65	1.9	0.5	0.4
CCOC(=O)c1cnc2sc3c(n2c1=O)CCCC3	4.7	?	-1	0.74	3.7	i	0.2
CSc1ccccc1NC(=O)CN(C1CCCCC1)S(C)(=O)=O	1.6	4%	3	0.7	-3.1	4.0	0.0
CC(C)(C)/C(Cn1cncn1)=N\OC(=O)Nc1ccc(Cl)cc1	-1.7	-5%	-8	/	2.1	/	0.7
NS(=O)(=O)c1ccc(CCNC(=O)COC(=O)c2ccc([N+](=O)[O-])o2)cc1	0.1	-2%	-5	0.69	1.8	20	-0.6
Cc1nc2scc(-c3ccccc3)c2c(=O)n1N	-3.2	-7%	4	0.62	6.1	-0.5	0.7
COc1cc(C2NC(=S)NC3=C2CCc2ccccc23)cc(OC)c1OC (stereo unspecified)	-0.9	3%	-5	0.69	-1.1	5.3	1.6
CCOC(=O)c1cnc(-n2nc(C)cc2C)nc1NNc1nc(-c2ccccc2)cc(-c2ccccc2)n1	-4.8	/	-17	0.74	7.9	4.4	0.5
O=C(O)C(Oc1ccc2ccccc2c1)c1ccccc1 (stereo unspecified)	1.9	/	4	0.65	3.5	5.3	0.6
COC(=O)c1ccc(C(=O)OC)c(NC(=O)c2cccnc2)c1	-3.1	-1%	-1	0.62	1.3	-50	0.6
O=C(NC1(O)C(=O)c2ccccc2C1=O)c1ccccc1	-1.1	6%	-1	0.71	0.9	84*	0.5
Nc1nccc(/C=C/c2ccc(Cl)cc2)n1	1.7	2%	8	0.61	-2.3	-81	-7.2
CCCOc1ccc(/C=C/c2c([N+](=O)[O-])c(=O)n(C)c(=O)n2C)cc1	3.7	/	10	0.71	1.7	7.3	0.0
O=C(O)Cc1sc(Nc2ccccc2)nc1-c1cccs1	45*	8%	8	/	4.1	/	-1.3
O=C(NCCc1ccccn1)c1ccc(S(=O)(=O)N2CCCCCC2)cc1	6.2	-1%	1	0.66	-3.0	2.0	-0.5
O=C(O)COc1ccccc1/C=N/NC(=O)CNC(=O)c1ccco1	2.1	4%	2	/	5.2	/	-1.1
CC1(C)CC(C(=O)NCCC(c2ccccc2)c2ccco2)CCO1 (stereo unspecified)	3.6	15%	3	0.69	/	2.9	0.3
